Shh pathway inh = Hedgehog pathway signaling inhibitors, primary screen, luminescence, Shh-LIGHT2 cells, Gli-luciferase; Shh-LIGHT2 Gli-luciferase reporter, 30 h; inhibition, % (test concentration not listed); 22,000 tested, 2.1% active;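 active means replicate mean of 65% or more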;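 further: pathway switched on by Shh-conditioned medium diluted 1 in 25 in low serum; 100 nL library stock added to about 40 µL; 0% = median of neutral wells and 100% = positive control level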
PD-1 reverse act = activators reversing PD-1 mediated T-cell inhibition, primary screen, luminescence, primary human CD4 T cells, PD-L1 beads; CellTiter-Glo 96 h; activation, % (concentration not given with the values); 29,000 tested, under 10 active; AID 2316, 2010;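 active means replicate mean of 50% or more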;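 further: 0% = median vehicle wells and 100% = positive control; 100 nL library stock added to about 50 µL; numbers are from one replicate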
YB-1 expr inh = inhibitors of YB-1 gene expression, primary screen, cell-based, fluorescence; U2OS, qRT-PCR YB-1 vs CDIP delta delta Cp, 16 h; active compounds read high; zero = DMSO, each unit about twofold; delta delta Cp (YB-1 minus CDIP) (no concentration beside the values); 30,000 tested, 0.37% active; AID 434959, 2010;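 active means delta delta Cp rounded down to an integer at or above 3, about 3 SD of DMSO wells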;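 further: higher means less YB-1 transcript or more CDIP transcript relative to DMSO; stock transfer was 100 nL into about 100 µL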
MITF inhib = inhibitors of MITF, primary screen, MITF inhibitor project, cell-based, luminescence; TRPM1 promoter luciferase, 24 h; inhibition, % (concentration not given with the values); 37,000 tested, 0.28% active; AID 2240, 2010;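 active means most replicates at 85% or more, or half of them and the mean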;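 further: human melanocyte line stably carrying TRPM1 promoter luciferase reporter; 0% = vehicle wells and 100% = a positive control; the first replicate is given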
The depositor's hits bear a star; / = no result given.

SMILES	Shh pathway inh	PD-1 reverse act	YB-1 expr inh	MITF inhib
C[C@@H]1CN([C@@H](C)CO)C(=O)c2cc(NS(=O)(=O)c3cccs3)ccc2O[C@@H]1CN(C)S(=O)(=O)c1ccc(F)cc1	/	-0.7	0.199	-3.1
C[C@@H]1CN([C@@H](C)CO)C(=O)c2cccc(N(C)C)c2O[C@H]1CN(C)C(=O)Nc1ccccc1	-39.9	0.2	-0.091	0.1
O=S(=O)(Nc1nc2ccccc2nc1NCCc1ccccc1)c1ccc(Cl)cc1	77.6*	0.9	-0.382	46.8
COc1ccc(S(=O)(=O)Nc2ccc3c(c2)C(=O)N([C@H](C)CO)C[C@@H](C)[C@@H](CN(C)C(=O)Nc2ccc(F)cc2)O3)cc1	-21.0	0.5	0.0658	-20.2
CSc1c(CC(=O)Nc2ccc(C)cc2)[nH]c2ccccc12	-26.8	-2.0	-0.209	53.7
Cc1ccc(S(=O)(=O)N(C)CC(=O)Nc2ccc3ccccc3c2)cc1	/	0.7	/	20.7
C[C@@H]1CN([C@@H](C)CO)C(=O)c2cc(NC(=O)C3CC3)ccc2O[C@H]1CN(C)Cc1ccc(-c2ccccc2)cc1	/	0.1	-0.0089	0.4
C[C@@H]1CN([C@@H](C)CO)C(=O)c2cccc(NC(=O)c3nc4ccccc4s3)c2O[C@H]1CN(C)C(=O)NC1CCCCC1	9.0	-1.3	0.179	-3.9
N#Cc1ccccc1CSc1nnc(-c2ccccc2)n1-c1ccccc1	/	-2.5	/	-5.1
Cc1c(NC(=O)CN(c2cc(Cl)ccc2Cl)S(C)(=O)=O)c(=O)n(-c2ccccc2)n1C	/	0.7	/	-1.6
CC(=O)Nc1ccc(Br)cc1C(=O)OCc1cccc([N+](=O)[O-])c1	/	1.0	/	-2.0
O=C(NCc1cccnc1)C1CC(c2cccc(Br)c2)=NO1 (configuration not stated)	/	-0.3	/	33.3
COC(=O)C1=CO[C@@H](O[C@@H]2O[C@H](CO)[C@@H](O)[C@H](O)[C@H]2O)[C@H]2[C@@H]1C=CC21C=C(C(C)O)C(=O)O1 (some centres not stated)	-0.7	1.3	0.444	-14.7
C[C@H]1CN([C@@H](C)CO)C(=O)Cc2cc(NC(=O)NC3CCCCC3)ccc2O[C@H]1CN(C)C(=O)Nc1ccccc1	9.4	0.5	0.0134	-2.6
C[C@@H]1CCCCO[C@H](CN(C)S(=O)(=O)c2ccccc2)[C@@H](C)CN([C@H](C)CO)C(=O)c2cc(NC(=O)CCC(F)(F)F)ccc2O1	13.3	-2.3	0.413	-7.0
COc1ccccc1N1CCN(CCCCN2C(=O)CCC2=O)CC1	-39.9	-2.9	-0.118	-7.1
Cc1noc(C)c1NC(=O)N(C)C[C@@H]1Oc2ccc(NC(=O)Nc3cccc4ccccc34)cc2CC(=O)N([C@H](C)CO)C[C@@H]1C	-32.6	2.2	-0.0577	4.5
C[C@H](CO)N1C[C@H](C)[C@H](CN(C)C(=O)Nc2ccc(C(F)(F)F)cc2)Oc2c(NS(=O)(=O)c3ccc(F)cc3)cccc2C1=O	15.5	-3.8	0.465	29.6
CCCn1nnc(NC(=O)COc2ccc(C)cc2)n1	/	0.5	/	-17.6
C[C@@H]1CN([C@@H](C)CO)C(=O)c2cccc(NC(=O)C3CC3)c2O[C@H]1CN(C)S(=O)(=O)c1ccc(F)cc1	31.1	/	-0.0935	-6.3
CCCc1cc(=O)[nH]c(Nc2nc(C)c3cc(OC)ccc3n2)n1	/	0.9	/	35.3
C[C@H]1CN([C@@H](C)CO)C(=O)Cc2cc(NS(=O)(=O)c3ccccc3)ccc2O[C@@H]1CN(C)Cc1ccc(Cl)c(Cl)c1	24.6	/	0.0416	21.5
O=C(NCCN1CCCCC1)Nc1cccc2ccccc12	48.1	-0.6	0.0826	5.3
Cc1noc(C)c1NC(=O)Nc1ccc2c(c1)CC(=O)N([C@@H](C)CO)C[C@H](C)[C@@H](CN(C)Cc1ccc(-c3ccccc3)cc1)O2	1.9	/	0.0165	7.1
Cc1nc(C23CC4CC(CC(C4)C2)C3)[nH]c(=O)c1Cl	-29.7	-1.3	-0.237	10.0
C[C@H](CO)N1C[C@H](C)[C@H](CN(C)C)Oc2ccc(NC(=O)CCC(F)(F)F)cc2C1=O	/	1.5	0.0111	-10.9
C[C@H](CO)N1C[C@H](C)[C@H](CN(C)S(=O)(=O)c2cccs2)Oc2ccc(NC(=O)CCCCCC(=O)Nc3ccccc3N)cc2CC1=O	/	0.3	-0.205	5.1
C[C@@H]1CN([C@@H](C)CO)C(=O)c2cc(NC(=O)c3ccncc3)ccc2O[C@H]1CN(C)Cc1ccc(C(=O)O)cc1	13.9	1.5	-0.321	2.0
COC(=O)c1sccc1NC(=O)COc1cccc(C)c1	/	-1.6	/	-18.5
CCOc1ccc2nc(SCC(=O)Nc3ccc(Cl)cc3)[nH]c2c1	/	-6.1	/	-1.7
Cc1ccc(S(=O)(=O)Nc2cccc3c2O[C@@H](CN(C)C(=O)Nc2ccc4c(c2)OCO4)[C@@H](C)CN([C@H](C)CO)C3=O)cc1	22.1	-3.5	0.662	-2.8
COc1ccc(NC(=O)N(C)C[C@@H]2Oc3ccc(NS(=O)(=O)c4ccccc4)cc3CC(=O)N([C@H](C)CO)C[C@H]2C)cc1	-10.9	1.9	0.209	1.9
Cc1noc(C)c1NC(=O)N(C)C[C@H]1Oc2c(cccc2N(C)C)C(=O)N([C@H](C)CO)C[C@@H]1C	7.5	0.4	0.667	-6.4
COc1cc(C(=O)OC2OC(CO)C(O)C(O)C2O)cc(OC)c1OC (configuration not stated)	-8.9	/	-0.0485	/
C/C=C1/[C@H](O[C@@H]2O[C@H](CO)[C@@H](O)[C@H](O)[C@H]2O)OC=C(C(=O)OC)[C@H]1CC(=O)OCC(C)[C@@H]1C[C@H]2OC(=O)C3=CO[C@@H](O[C@@H]4O[C@H](CO)[C@@H](O)[C@H](O)[C@H]4O)/C(=C/C)[C@@H]3CC(=O)OC[C@@H]1[C@H]2C (some centres not stated)	0.3	-1.2	-0.21	-18.8
C[C@H]1CN([C@@H](C)CO)C(=O)Cc2cc(NC(=O)NC3CCCCC3)ccc2O[C@H]1CN(C)Cc1ccncc1	-37.2	-0.1	0.0242	-8.5
CC(C)NC(=O)N(C)C[C@H]1Oc2c(NC(=O)c3nc4ccccc4s3)cccc2C(=O)N([C@@H](C)CO)C[C@@H]1C	-13.7	2.7	0.059	3.8
c1ccc(-c2nnc(-c3cccc4ccccc34)o2)cc1	-171.7	0.1	-0.0884	51.1
C[C@@H]1CN([C@H](C)CO)C(=O)c2cccc(N(C)C)c2O[C@H]1CN(C)C(=O)Nc1ccc(C(F)(F)F)cc1	-9.6	-4.3	0.211	1.3
O=C1C[C@@H](c2ccc(O)c(O)c2)Oc2cc(O[C@@H]3O[C@H](CO)[C@@H](O)[C@H](O)[C@H]3O)cc(O)c21	-24.2	/	0.0664	/
S=C(NCc1ccco1)NCC1CCCO1 (configuration not stated)	/	-1.5	/	-1.2
C[C@@H]1CN([C@H](C)CO)C(=O)c2cccc(NS(C)(=O)=O)c2O[C@H]1CN(C)C	-33.8	1.9	0.229	-0.2
Cc1cc2oc(C(=O)Nc3nnc(SCc4ccccc4)s3)c(C)c2cc1C	/	2.1	/	-15.2
C[C@@H]1CN([C@H](C)CO)C(=O)c2cccc(N(C)C)c2O[C@H]1CN(C)S(=O)(=O)c1cn(C)cn1	3.1	2.6	-0.0173	8.0
CC(Oc1ccc(Br)cc1)C(=O)NCc1ccco1 (configuration not stated)	/	-2.5	/	-6.5
O=C1CCCC(O)=C1C=Nc1cccc2ccccc12	20.4	-0.5	-0.243	0.8
C[C@H](CO)N1C[C@H](C)[C@H](CN(C)Cc2ccc(C(F)(F)F)cc2)Oc2ccc(NC(=O)Nc3ccc(F)cc3)cc2C1=O	/	-5.3	-0.249	21.6
C[C@H](CO)N1C[C@H](C)[C@@H](CN(C)C(=O)Nc2ccc(F)cc2)Oc2ccc(NC(=O)C3CCCCC3)cc2C1=O	0.2	-1.4	0.221	8.3
C[C@@H]1CN([C@@H](C)CO)C(=O)c2cc(NC(=O)Nc3ccc4c(c3)OCO4)ccc2O[C@@H]1CN(C)C(=O)NC1CCCCC1	17.3	-0.1	-0.112	3.4
Cc1ccc2oc3c(c(=O)c2c1)C(c1ccc([N+](=O)[O-])cc1)N(CCCN1CCOCC1)C3=O (configuration not stated)	/	0.8	/	-26.1
C[C@H]1CN([C@@H](C)CO)C(=O)c2cc(NC(=O)NC3CCCCC3)ccc2O[C@@H]1CN(C)Cc1ccc(Cl)c(Cl)c1	/	-0.9	0.281	12.4
C[C@@H]1CN([C@@H](C)CO)C(=O)Cc2cc(NS(=O)(=O)c3cccs3)ccc2O[C@@H]1CN(C)C(=O)NC1CCCCC1	/	0.3	-0.405	-2.5
CC(=O)OC1C(C)OC(OC2C(CO)OC(OC(=O)[C@]34CCC(C)(C)CC3C3=CCC5[C@@]6(C)CC[C@H](OC7OC(CO)C(OC8OC(CO)C(OC9OCC(O)C(O)C9O)C(O)C8O)C(O)C7O)[C@@](C)(CO)C6CC[C@@]5(C)[C@]3(C)CC4)C(OC3OC(C)C(O)C(O)C3O)C2O)C(O)C1O (some centres not stated)	3.5	/	1.42	/
CC(=O)Nc1ccccc1C(=O)OCc1cccc(C(=O)c2ccccc2)c1	/	-1.2	/	-5.5
C[C@H]1CN([C@@H](C)CO)C(=O)c2cc(NC(=O)c3ccncc3)ccc2O[C@H]1CN(C)Cc1ccccc1	-7.6	/	0.246	-6.5
COc1ccc(Cl)cc1NC(=O)CSc1nc(N)cc(=O)[nH]1	/	0.1	/	-4.3
COc1ccccc1C(=O)NCCNC(=O)c1ccco1	/	1.7	/	-30.8
COC(=O)c1cc(OC)c(OC)cc1NC(=O)COc1ccc(Br)c(C)c1	/	-2.1	/	-19.0
COc1ccc(C(=O)NC(=S)NCc2cccnc2)cc1[N+](=O)[O-]	/	-0.3	/	2.7
C[C@@H]1CN([C@H](C)CO)C(=O)c2cc(NC(=O)Nc3ccc(C(F)(F)F)cc3)ccc2O[C@@H]1CN(C)CC1CC1	-41.0	/	-0.0694	-5.1

More entries
SMILES	Shh pathway inh	PD-1 reverse act	YB-1 expr inh	MITF inhib
C[C@H]1CN([C@@H](C)CO)C(=O)c2cc(N(C)C)ccc2O[C@H]1CN(C)S(C)(=O)=O	-25.0	0.5	0.218	-2.5
O=C(CC1NC2CCCCC2NC1=O)Nc1ccc(Cl)cc1 (configuration not stated)	/	1.8	/	-23.6
C[C@H](CO)N1C[C@H](C)[C@H](CN(C)C(=O)Nc2ccc(F)cc2)Oc2c(NS(=O)(=O)c3cccs3)cccc2C1=O	6.8	-2.1	-0.169	11.5
CN(Cc1nc(-c2ccccn2)no1)S(=O)(=O)c1ccc(Cl)cc1	/	0.1	/	-3.1
O=c1c2c3c(sc2nc(SCc2nc4ccccc4[nH]2)n1-c1ccccc1)CCC3	/	-3.0	/	31.1
COc1ccc(-c2noc(CSc3nnc(C)n3-c3ccccc3)n2)cc1	/	0.5	/	9.9
CC1OC(OCC2OC(Oc3c(-c4ccc(O)cc4)oc4cc(O)cc(O)c4c3=O)C(O)C(O)C2O)C(O)C(O)C1O (configuration not stated)	-8.8	0.2	-0.00527	-2.0
N#Cc1c(NC(=O)CCN2C(=O)c3ccccc3C2=O)sc2c1CCCC2	/	-0.5	/	-18.5
C[C@@H]1CN([C@@H](C)CO)C(=O)c2cc(NC(=O)Cn3cnnn3)ccc2O[C@H]1CN(C)S(=O)(=O)c1cn(C)cn1	7.3	1.1	0.0528	1.4
Cn1c(SCC(=O)n2c3c(c4ccccc42)CCCC3)nnc1-c1ccccc1	/	0.8	/	-19.5
COc1ccc(S(=O)(=O)N(C)C[C@@H]2Oc3c(NC(=O)c4cnccn4)cccc3C(=O)N([C@@H](C)CO)C[C@H]2C)cc1	-7.2	/	-0.399	-3.4
Cc1noc(C)c1S(=O)(=O)Nc1ccc2c(c1)CC(=O)N([C@@H](C)CO)C[C@H](C)[C@H](CN(C)C(=O)Nc1ccccc1)O2	3.1	-0.2	-0.0677	-4.3
CCc1cc2c(SCC(=O)c3ccc(C)cc3)ncnc2s1	/	3.1	/	-78.7
C[C@H]1CN([C@@H](C)CO)C(=O)c2cc(N(C)C)ccc2O[C@H]1CN(C)CC1CCCCC1	/	-1.1	-0.0187	6.2
O=c1cc(-c2ccccc2)nc2cc(-c3ccccc3)[nH]n12	-240.9	-1.7	-0.289	-25.9

Compound profiles, from the list above. Values in the order: Shh pathway inh | PD-1 reverse act | YB-1 expr inh | MITF inhib
Entry for `S=C(NCc1ccco1)NCC1CCCO1` (configuration not stated) : / | -1.5 | / | -1.2
Entry for `CCCc1cc(=O)[nH]c(Nc2nc(C)c3cc(OC)ccc3n2)n1` : / | 0.9 | / | 35.3
Entry for `N#Cc1ccccc1CSc1nnc(-c2ccccc2)n1-c1ccccc1` : / | -2.5 | / | -5.1
Entry for `C[C@H]1CN([C@@H](C)CO)C(=O)c2cc(NC(=O)NC3CCCCC3)ccc2O[C@@H]1CN(C)Cc1ccc(Cl)c(Cl)c1` : / | -0.9 | 0.281 | 12.4

Screening results as filed in PubChem BioAssay.

This is a subset; the hit share may differ from the screen's.
